Screening data: PubChem, Sanford-Burnham Center for Chemical Genomics
mIAP activ = mouse IAP activation | muIAP, CDP-Star luminescence, 30 min; active compounds read high; 1 = vehicle-only enzyme signal, 0 = enzyme-free wells | activation factor at 10 µM | 0.24% of 330,000 active;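 active means activation factor of at least 2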; further: the source names both 10 and 20 µM as test concentration; values of inactives mirror those of a sister screen read the other way
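System: mouse IAP enzyme. Reagent: CDP-Star chemiluminescent phosphatase substrate. Benchmarks: DMSO wells, no-enzyme wells. Times: 30 min enzyme-substrate-compound incubation at room temperature. Detection: luminescence from enzymatic CDP-Star hydrolysis. Doses: test compounds delivered from DMSO solution.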
APOBEC3A inh = inhibitors of human APOBEC3A DNA deaminase | recombinant A3A, FAM/TAMRA ssDNA deamination fluorescence | inhibition, % at 20 µM | 0.41% of 330,000 active;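 active means at least 40% inhibition at 20 µM here, with at most 30% in a related deaminase screen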;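 further: plate controls were A3A with DMSO for no effect and wells lacking A3A enzyme for full effect; some results filed as inactive read as strong as hits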
Target sequence (P31941 whole entry, looked up): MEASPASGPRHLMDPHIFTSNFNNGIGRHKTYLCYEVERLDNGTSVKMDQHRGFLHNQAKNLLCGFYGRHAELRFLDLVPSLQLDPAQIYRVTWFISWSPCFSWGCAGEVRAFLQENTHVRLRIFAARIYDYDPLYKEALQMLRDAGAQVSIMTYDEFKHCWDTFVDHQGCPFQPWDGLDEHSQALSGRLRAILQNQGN
NR3A LBD binder = modulators (binders) of human NR3A ligand-binding domain. NR3A LBD differential scanning fluorimetry, Tm shift; 0% = protein alone, 100% = glycine-bound protein. Tm shift relative to glycine control, % at 25 µM. 2.5% of 340,000 active. AID 1259313;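 active means melting temperature shift of at least 10% of the positive control shift, at one fixed dose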
A3G deaminase = APOBEC3G (human) deaminase inhibition | recombinant A3G, ssDNA deamination FAM/TAMRA fluorescence | 0.28% of 330,000 active | inhibition, % at 20 µM;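 active means inhibition of at least 40% at 20 µM, with no more than 30% in the related APOBEC3A deaminase screen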;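 further: plate controls were DMSO wells with A3G for no effect and wells lacking A3G enzyme for full effect; some compounds called inactive have numbers as strong as hits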
Target sequence (Q9HC16 whole entry, looked up): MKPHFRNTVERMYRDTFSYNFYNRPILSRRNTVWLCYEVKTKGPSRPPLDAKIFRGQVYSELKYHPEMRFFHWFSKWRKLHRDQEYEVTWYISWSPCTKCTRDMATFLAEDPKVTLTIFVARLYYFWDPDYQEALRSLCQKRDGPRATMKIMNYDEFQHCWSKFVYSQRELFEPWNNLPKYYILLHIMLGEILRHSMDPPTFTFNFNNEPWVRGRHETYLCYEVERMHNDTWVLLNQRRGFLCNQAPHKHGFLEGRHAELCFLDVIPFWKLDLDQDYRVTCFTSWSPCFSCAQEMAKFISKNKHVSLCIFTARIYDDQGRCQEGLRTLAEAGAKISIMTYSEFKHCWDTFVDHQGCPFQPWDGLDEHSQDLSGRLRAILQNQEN
hIAP activ = increases human intestinal alkaline phosphatase activity; P09923; purified human IAP, CDP-Star luminescence, 30 min; active compounds read high; 1 = vehicle-only enzyme, 0 = enzyme-free background; activation factor at 10 µM; 0.16% of 330,000 active;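 active means activation factor of the enzyme at least 2-fold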; further: the source names both 10 and 20 µM as test concentration; values of inactives mirror those of a sister screen read the other way
hIAP block = human IAP inhibition | P09923 | purified IAP, CDP-Star luminescence, 30 min | inhibition, % at 10 µM | 0.12% of 330,000 active;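 active means inhibition reaching a set limit with compound at 10 µM in the primary screen, cut at about 35% in these data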;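 further: plate controls were DMSO wells with enzyme for no effect and no-enzyme buffer wells for full effect; values of inactives mirror those of a sister screen read the other way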
beta cell repl = induces beta-cell replication in MIN6 cells; MIN6 cells proliferation, ATPlite luminescence, 48 h; cells starved in 0.2% serum; 100% = growth in 10% serum; proliferation, % at 10 µM; 0.29% of 330,000 active;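 active means compounds whose signal lies at least 3.5 SD above the mean of all wells on their plate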;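 further: 0% = DMSO-treated cells in low-serum medium and 100% = 10% serum control; some compounds called inactive have numbers as strong as hits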
mIAP block = blocks mouse intestinal alkaline phosphatase; 0.2% of 330,000 active; inhibition, % at 10 µM; purified mouse IAP, CDP-Star luminescence, 30 min; AID 2806;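 active means inhibition of at least 40% at 10 µM in the primary screen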;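 further: plate controls were DMSO with enzyme for no effect and no enzyme wells for full effect; values of inactives mirror those of a sister screen read the other way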
The depositor's hits bear a star; / = no result given; & = joins results of further samples.

SMILES	mIAP activ	APOBEC3A inh	NR3A LBD binder	A3G deaminase	hIAP activ	hIAP block	beta cell repl	mIAP block
CCCC(O)(CCN1CCCCC1)c1ccc(OCC)cc1 (centres undefined)	0.99	1	-1	1	1	-2	-2	1
Cc1cc(C)n(CC(=O)N/N=C/c2cc(Br)cc([N+](=O)[O-])c2O)n1	0.81	-5	-6	-9	1.1	-11	-5	19
COc1ccc(CN2CCN(Cc3nc4ccccc4s3)CC2CCO)c(C)c1C (centres undefined)	0.97	-5	2	-3	0.92	8	-4	3
O=C(Oc1ccccc1)c1c(Cl)cccc1P(=O)(O)O	1	-3	-1	35	0.97	3	-2	-1
CCc1nnc(NS(=O)(=O)c2ccc(NS(=O)(=O)c3ccccc3[N+](=O)[O-])cc2)s1	1.1	-2	0	-9	0.94	6	-4	-6
O=C(Nc1ccccc1)c1ccccc1NS(=O)(=O)c1ccc(Cl)s1	0.99	-4	22*	-10	0.94	6	-6	1
CCc1ccc(OCC(=O)NC(=S)Nc2ccc(C(=O)O)cc2)cc1	1	-2	1	-5	0.98	2	-2	0
Cc1ccc(NCC(O)C(O)C(O)CO)c(N=Nc2ccccc2)c1C (centres undefined)	0.86	4	2	6	0.92	8	-2	14
Cc1ccc(NC(=O)CN(C)C(=O)CNC(=O)c2cccs2)cc1	0.98	0	1	-6	1.2	-16	12*	2
CCC(C)C(NC(=O)OC(C)(C)C)C(=O)NCc1ccco1 (centres undefined)	1	-1	-7	-5	1.2	-24	-1	-2
COc1ccc(Cl)cc1NC(=O)C[n+]1cccc(C)c1	1	-5	0	-3	1.1	-9	-2	-4
CC1CC2C3CCC4=CC(=O)C=CC4(C)C3(F)C(O)CC2(C)C1(O)C(=O)CO (centres undefined)	1.1	0	-4	1	1.1	-12	-4	-12
Cc1ccc(NC(=O)Cn2nc(C)c3ccccc3c2=O)cc1F	0.95	-2	-1	-2	1	-2	-3	5
CN(C)C(=O)C(CCN1CCC(O)(c2ccc(Cl)cc2)CC1)(c1ccccc1)c1ccccc1	1.1	-2	1	-6	1.1	-7	-8	-7
COc1ccc(C(=O)Nc2ccc(N3CCCC3)cc2)cc1OC	0.95	-2	-1	-11	1.2	-16	0	5
O=C(c1nnsc1S(=O)c1ccc(Cl)cc1)N1CCOCC1 (centres undefined)	1.1	-1	1	-8	1.2	-20	-5	-9
COc1cccc(OCc2cc(C(=O)N(C)CCOc3ccc(C)cc3)no2)c1	0.99	-2	4	-4	0.92	8	-4	1
Cc1ccnc(SCC(=O)Nc2sc3c(c2C#N)CCC(C(C)(C)C)C3)n1 (centres undefined)	0.93	-6	-5	-5	1.1	-9	-6	7
O=C(Nc1nc2ccccc2c(=O)s1)c1ccco1	1	4	-6	-4	0.99	1	2	0
COc1ccc(C(=O)NCC(=O)N2CCCC(C(F)(F)F)C2)cc1OC (centres undefined)	0.88	-1	1	-7	0.99	1	5	12
O=C(NCc1ccc(F)cc1)C(=O)c1cn(CC(=O)N2CCCC2)c2ccccc12	0.95	-1	-1	-7	1.1	-11	-1	5
CCOc1cc(C2C(C(=O)c3ccco3)=C(O)C(=O)N2CC2CCCO2)ccc1O (centres undefined)	0.99	-8	2	-13	0.79	21	2	1
O=C(Nc1cccnc1)c1cccc(F)c1	0.96	1	2	3	1	-5	0	4
COc1ccccc1NC(=O)CSc1nccc(=O)[nH]1	0.94	-7	0	-10	1.1	-6	-4	6
Nc1nonc1-n1nnc(C(=O)N/N=C/c2ccc(OCc3ccc(F)cc3)cc2)c1COc1ccccc1	0.83	3	26*	-1	1.1	-12	-2	17
O=C(O)c1ccc2c(c1)CC(c1ccccc1)OC2=O (centres undefined)	1	-6	0	-10	1.1	-14	-2	-4
CC(N)C(=O)NC(CO)C(O)C(N)C=O (centres undefined)	/	/	-1	/	/	/	/	/
COc1ccc2cc(CN(CCO)C(=O)c3ccc(Br)cc3)c(=O)[nH]c2c1	/	/	1	/	/	/	/	/
COC(CNC(=O)c1ccc(N2CCCC2=O)cc1)OC	1.1	-1	1	-2	1	-1	-4	-10
C=CC[C@]12C=C(OC)C(=O)C=C1O[C@@H](c1ccc3c(c1)OCO3)[C@H]2C	0.87	-4	0	-7	1.1	-8	0	13
Cc1cc(C)n(C(=O)C(C)n2nc([N+](=O)[O-])c(Br)c2C)n1 (centres undefined)	0.92	-2	-1	-4	0.93	7	0	8
CCOC(=O)c1ccc(NC(=O)CCOc2ccc(OC)cc2)cc1	0.95	-3	1	-5	0.84	16	2	5
COc1cc(NS(=O)(=O)c2ccc(N)cc2)nc(OC)n1	1.1	-1	1	-3	0.94	6	-1	-6
CC(C)C(=O)N1CCN(C2=NS(=O)(=O)c3ccccc32)CC1	1	3	2	28	1.1	-7	-1	-1
COCCN(C(=O)COC(=O)c1ccccc1Cc1ccccc1)c1c(N)n(Cc2ccccc2)c(=O)[nH]c1=O	1.1	-3	0	-11	1.1	-8	-2	-12
COc1cccc(C2=NOC(C(=O)NC(C)C)C2)c1 (centres undefined)	1.1	-7	1	-5	1.3	-27	-2	-10
Nc1nc2c(ncn2COC(CO)CO)c(=O)[nH]1	0.92	-4	2	-4	0.85	15	0	8
Cc1nnc(SCC(=O)NCc2cccs2)[nH]c1=O	1	-7	-1	-8	0.85	15	-2	-3
CC(=O)NC1(NC(C)=O)CCN(C)C(c2ccccc2)C1C (centres undefined)	1	5	-1	1	0.95	5	0	0
CN(C(=S)SCc1ccccc1)C1CCS(=O)(=O)C1 (centres undefined)	1	-1	1	-2	1.1	-13	1	0
O=[N+]([O-])c1ccc(NC(=S)NCc2ccc(F)cc2)cc1	0.85	-2	7	-5	1	-1	-4	15
CCOc1ccc(C2C(C(=O)c3ccc(C)o3)=C(O)C(=O)N2Cc2cccnc2)cc1 (centres undefined)	0.99	-4	2	9	0.66	34	0	1
CC(C(=O)NN=C(c1ccccc1)c1ccccc1)N1CCCC1 (centres undefined)	1	-3	2	9	0.96	4	7	-1
Cc1cccc(NC(=O)COC(=O)c2n[nH]c3ccccc23)c1C	0.95	-3	0	-7	1	-1	-2	5
CCOC(=O)c1cnn(-c2ccccc2)c1NC(=O)C(F)(F)C(F)(F)C(F)(F)F	0.99	0	2	-2	1.1	-15	0	1
O=C(O)c1ccc(Cl)c(S(=O)(=O)Nc2ccccc2N2CCOCC2)c1	1	0	-4	-1	1	0	0	-4
COc1cc2[nH]c(C(=O)N3CC(C)OC(C)C3)cc2c(OC)c1OC (centres undefined)	0.94	-4	-2	-9	1.1	-7	9.0*	6
Cc1cc2n(c(=O)c1C#N)CCCN2c1ccccc1	1.1	5	-1	-4	1.5	-49	1	-11
O=C(c1cccnc1)N1CCN(Cc2cccc(F)c2)CC1	1.1	-19	-1	0	1.1	-11	-1	-6
CSC1=C(C#N)C(c2ccccc2Cl)C(C(C)=O)=C(C)N1 (centres undefined)	0.98	-3	-2	-5	0.65	35*	-3	2
N=c1c2c(-c3ccccc3)c(-c3ccccc3)n(Cc3ccccc3)c2ncn1CCCO	0.98	0	1	-5	1.1	-11	-6	2
Fc1ccc(-c2cn3ccccc3n2)cc1	1.1	0	0	3	0.84	16	-3	-7
CSc1ccccc1NC(=O)c1cc(CC(C)C)on1	0.92	3	0	3	0.97	3	0	8
O=C(Cn1ncc2c1-c1ccccc1OC2)N1CCc2ccccc21	0.97	1	0	2	0.96	4	-4	3
CCN1CCC[C@H]1CNC(=O)c1c(O)c(Cl)cc(Cl)c1OC	0.96&1.2	0&-3	-2	-10&-5	1.1&1	-11&-4	1&0	4&-16
NCCc1ccc(O)c(O)c1	0.68	-2	1	0	0.98	2	-7	32
COc1ccc(C2CC(=O)c3cnc(NC(=O)c4cccc(OC)c4)nc3C2)cc1 (centres undefined)	0.94	-2	-1	-10	1.1	-12	-1	6
CCCc1cc(C(=O)N2CCCC(C(=O)c3ccc(Cl)cc3)C2)n(C)n1 (centres undefined)	0.97	-1	3	2	0.94	6	0	2
CCc1ccc(Oc2coc3cc(OCC(=O)Nc4cc(C)ccc4C)ccc3c2=O)cc1	0.87	-1	-21	-4	0.81	18	-5	13
O=c1ccc2ccccc2o1	1.1	-5	3	-7	1.1	-8	-3	-7
Continued.
SMILES	mIAP activ	APOBEC3A inh	NR3A LBD binder	A3G deaminase	hIAP activ	hIAP block	beta cell repl	mIAP block
C[C@]12C[C@H](O)[C@H]3[C@@H](CCC4=CC(=O)CC[C@@]43C)[C@@H]1CC[C@@H]2C(=O)CO	0.96	-5	0	-6	0.9	10	-2	4
CCCNC(=O)c1ccccc1NC(=O)COc1ccc(OC)cc1	1	-3	1	-8	0.93	7	0	0
O=C(Cn1cnc2c(cnn2-c2ccccc2)c1=O)Nc1ccc(S(=O)(=O)N2CCOCC2)cc1	0.95	0	-4	-11	0.97	3	-1	5
CC(C)(C)NC(=O)CON=C1c2ccccc2-c2ccccc21	0.9	-4	-9	-3	0.81	19	-2	10
Cn1c(CCN2CCCCC2)nc2cc(NS(=O)(=O)c3ccccc3)ccc21	1	3	-2	2	0.97	3	2	-1
CC(CCc1ccccc1)NCC(O)c1ccc(O)c(C(N)=O)c1 (centres undefined)	0.95	-6	-1	-6	0.78	22	5	4
COc1cccc(NC(=O)N(C2CCCCC2)C(C)c2cccs2)c1 (centres undefined)	0.8	6	-1	1	1.2	-16	-4	20
CCN1CCN(C(=O)NCc2ccccc2)CC1	1	-6	-3	-7	1.1	-7	0	-4
CC1(C)N=C(SCC(=O)Nc2ccccc2)C(c2ccc(Cl)cc2)=N1	1	-1	-1	-1	0.99	1	1	0
O=C(NC1CCC(Oc2ccc(C(=O)O)cc2)CC1)NC12CC3CC(CC(C3)C1)C2 (centres undefined)	0.99	-1	1	-6	0.89	11	0	1
O=C(C(Cc1ccccc1)N1C(=O)C2C3C=CC(C3)C2C1=O)N1CCCCCC1 (centres undefined)	1	-3	1	1	0.97	3	-2	-1
Cc1ccc2nc(-c3ccccc3)cc(C(=O)NCC3CCCO3)c2c1 (centres undefined)	0.95	-3	-1	-7	1	-1	-2	5
Cc1[nH]nc2c1C(c1ccccc1)C1=C(CC(C)(C)CC1=O)N2 (centres undefined)	0.99	2	1	3	1.2	-16	1	1

Ordered by formula weight (lowest first): some entries from above
SMILES	mIAP activ	APOBEC3A inh	NR3A LBD binder	A3G deaminase	hIAP activ	hIAP block	beta cell repl	mIAP block
CCN1CCN(C(=O)NCc2ccccc2)CC1	1	-6	-3	-7	1.1	-7	0	-4
Cc1[nH]nc2c1C(c1ccccc1)C1=C(CC(C)(C)CC1=O)N2 (centres undefined)	0.99	2	1	3	1.2	-16	1	1
CC(C)(C)NC(=O)CON=C1c2ccccc2-c2ccccc21	0.9	-4	-9	-3	0.81	19	-2	10
CCCNC(=O)c1ccccc1NC(=O)COc1ccc(OC)cc1	1	-3	1	-8	0.93	7	0	0
C[C@]12C[C@H](O)[C@H]3[C@@H](CCC4=CC(=O)CC[C@@]43C)[C@@H]1CC[C@@H]2C(=O)CO	0.96	-5	0	-6	0.9	10	-2	4
COc1cccc(NC(=O)N(C2CCCCC2)C(C)c2cccs2)c1 (centres undefined)	0.8	6	-1	1	1.2	-16	-4	20
CC1(C)N=C(SCC(=O)Nc2ccccc2)C(c2ccc(Cl)cc2)=N1	1	-1	-1	-1	0.99	1	1	0
Cn1c(CCN2CCCCC2)nc2cc(NS(=O)(=O)c3ccccc3)ccc21	1	3	-2	2	0.97	3	2	-1
O=C(NC1CCC(Oc2ccc(C(=O)O)cc2)CC1)NC12CC3CC(CC(C3)C1)C2 (centres undefined)	0.99	-1	1	-6	0.89	11	0	1
O=C(Cn1cnc2c(cnn2-c2ccccc2)c1=O)Nc1ccc(S(=O)(=O)N2CCOCC2)cc1	0.95	0	-4	-11	0.97	3	-1	5

A portion of the library (hit frequency here may not be typical).
